# Compound activity: PubChem, several laboratories
# Anthrax LF inh2: Bacillus anthracis LF protease inhibitors, primary screen, biochemical, multiplex microsphere, MLPCN library | Lethal factor (Bacillus anthracis), P15917 | multiplex microsphere protease cleavage assay | inhibition, % at 10 µM | 360,000 compounds, 0.12% hits; in the data active = inhibition above about 30%; inconclusive = no clear call, values can overlap the other calls; note: plate controls were buffer without enzyme for full effect and enzyme alone for no effect
# Target sequence (P15917 whole entry, looked up): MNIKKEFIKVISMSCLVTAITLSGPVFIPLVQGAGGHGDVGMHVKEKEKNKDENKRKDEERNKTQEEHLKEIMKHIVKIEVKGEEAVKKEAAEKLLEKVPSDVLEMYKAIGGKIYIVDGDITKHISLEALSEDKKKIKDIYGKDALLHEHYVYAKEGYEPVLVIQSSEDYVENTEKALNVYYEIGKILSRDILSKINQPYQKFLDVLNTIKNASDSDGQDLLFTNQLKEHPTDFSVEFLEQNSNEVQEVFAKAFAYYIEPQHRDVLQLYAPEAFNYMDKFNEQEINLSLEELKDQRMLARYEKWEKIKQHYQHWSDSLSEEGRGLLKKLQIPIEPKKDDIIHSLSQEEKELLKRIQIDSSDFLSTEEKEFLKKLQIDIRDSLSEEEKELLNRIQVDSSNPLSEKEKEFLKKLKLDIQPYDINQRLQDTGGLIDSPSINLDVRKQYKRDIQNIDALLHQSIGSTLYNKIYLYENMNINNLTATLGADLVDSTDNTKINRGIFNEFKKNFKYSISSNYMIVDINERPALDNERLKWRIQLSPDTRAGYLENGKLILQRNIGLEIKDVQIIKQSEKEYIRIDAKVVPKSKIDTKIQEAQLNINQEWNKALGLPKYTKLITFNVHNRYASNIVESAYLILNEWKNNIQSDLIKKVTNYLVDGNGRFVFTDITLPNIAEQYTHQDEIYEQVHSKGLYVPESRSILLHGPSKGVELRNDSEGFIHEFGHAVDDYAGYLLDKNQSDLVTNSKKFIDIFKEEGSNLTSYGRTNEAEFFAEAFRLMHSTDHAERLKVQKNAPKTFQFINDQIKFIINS
# PfHsp40 yeast: rescue of yeast from PfHsp40 toxicity, primary screen, S. cerevisiae, ATP luminescence | S. cerevisiae expressing PfHsp40, growth rescue | growth rescue, % at 12.5 µM | 340,000 compounds, 0.68% hits; in the data active = growth rescue above about 28%, passing the limit was not always enough; inconclusive = no clear call, values can overlap the other calls;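 note: yeast W303a lacking pdr1 and pdr3 grown in galactose medium; growth measured after three days at 30 °C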
# Rv3671c protease: Rv3671c serine protease inhibitors, primary screen, biochemical, fluorescence polarization, M. tuberculosis H37Rv; inhibition, % at 5.96 µM; 320,000 compounds, 0.048% hits; AID 2606, 2010; in the data active = inhibition above about 38%;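 note: extracellular domain of Rv3671c used as enzyme; 0% = enzyme with DMSO and 100% = no enzyme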
# TcdB inh: TcdB glycohydrolase inhibitors, primary screen, biochemical, single point, plate reader; AID 652162, 2013; Toxin B (Clostridioides difficile), P18177; inhibition, % at 9.99 µM; 350,000 compounds, 0.24% hits; TcdB glycohydrolase enzymatic assay; in the data active = inhibition above about 10%
# VHR inh abs: VHR1 phosphatase inhibitors, primary screen, biochemical, absorbance, uHTS. Dual specificity protein phosphatase 3 (Homo sapiens), P51452. recombinant VHR phosphatase, pNPP absorbance. inhibition, % at 13.3 µM. 290,000 compounds, 0.52% hits; in the data active = inhibition above about 50%; note: some compounds called inactive have numbers as strong as hits
# Target sequence (P51452 whole entry, looked up): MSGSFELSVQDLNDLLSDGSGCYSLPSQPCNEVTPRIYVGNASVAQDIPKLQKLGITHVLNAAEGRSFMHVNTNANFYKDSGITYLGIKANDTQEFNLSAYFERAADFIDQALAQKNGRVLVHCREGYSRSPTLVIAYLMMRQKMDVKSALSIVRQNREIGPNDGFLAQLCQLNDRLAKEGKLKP
# Yp Topo-I inh: Yersinia pestis topoisomerase I inhibitors, primary screen, biochemical, cleavage product accumulation, plate reader, single point. Y. pestis Topo-I cleavage product accumulation. activity, % at 10 µM. 360,000 compounds, 0.064% hits. AID 504884, 2011; in the data active = activity above about 50%, passing the limit was not always enough; inconclusive = no clear call, values can overlap the other calls; note: inactives centre near 2
# SSB-PriA inh: inhibitors of Klebsiella pneumoniae PriA binding to SSB C-terminal tail, primary screen, biochemical, AlphaScreen; AlphaScreen SSBct-PriA binding, biotinylated peptide; PriA–SSB C-terminal tail interaction (Klebsiella pneumoniae); 430,000 compounds, 0.6% hits; inhibition, % at 33 µM; in the data active = inhibition mostly above about 37%, no sharp cut-off; inactive = mostly below about 20%;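 note: plate controls were negative control peptide for no effect and reference peptide for full effect; strong numbers were not always called active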
# SARS 3CLpro inh: SARS-CoV 3CLpro protease inhibitors, primary screen, biochemical, quenched FRET; Replicase polyprotein 1ab (Severe acute respiratory syndrome coronavirus), P0C6X7; inhibition, % at 6 µM; recombinant SARS-CoV 3CLpro, quenched FRET peptide cleavage; 290,000 compounds, 0.14% hits; in the data active = inhibition above about 12%
# Vc quorum ag: inducers of Vibrio cholerae quorum light production without autoinducers, primary screen, BH1578 luxS cqsA deficient, single point; V. cholerae BH1578 lux reporter, luminescence, 6 h; activation, % at 18.7 µM; 350,000 compounds, 0.16% hits; in the data active = activation mostly above about 9.7%, no sharp cut-off; inconclusive = no clear call, values can overlap the other calls; inactive = mostly below about 3.7%; note: not every result past the cut was called active; inactives centre near 0; reference of the scale not given here
# Numbers without * were called inactive; i = inactive; ? = inconclusive; . = not tested or not shown; & = joins results of further samples. The list is partial (hit frequency here may not be typical).
smiles	SARS 3CLpro inh	Rv3671c protease	SSB-PriA inh	Anthrax LF inh2	Vc quorum ag	VHR inh abs	TcdB inh	PfHsp40 yeast	Yp Topo-I inh
COCCNC(=O)CSc1nc2scc(-c3ccccc3)c2c(=O)[nH]1	-2.9	-8.9	-6.0	.	-1.2	8.7	0.2	-1.2	-8.0
COc1ccc(CN(Cc2cccn2C)S(=O)(=O)c2ccccc2)cc1	4.2	7.4	-4.3	1.4	i	20.5	1.7	0.1	-5.1
COc1ccc(Nc2cc(C(=O)NC3CCCC3)c3ccccc3n2)c(OC)c1	-2.8	-2.0	8.3	0.3	-0.3	31.6	0.1	0.0	11.9
CCC(C)n1c(C)nc2c(c1=O)c1nc3ccccc3nc1n2CCC1=CCCCC1 (stereo not given)	-1.8	-1.7	-12.9	?	-0.4	13.2	.	-0.3	5.9
CCOc1cc(C(=O)N2CCN=C2SC)cc(OCC)c1OCC	-2.2	1.4	-8.0&-7.7	2.2	12.9	6.1	.	-0.6	1.3
Nc1cc(Nc2ccc(Br)cc2)nc(N)n1	6.3	9.7	-3.4	0.6	-3.2	23.9	0.5	-0.9	-4.0
CCn1c2ccccc2c2cc(NC(=O)N3CCCCC3)ccc21	.	.	.	-2.7	i	.	0.3	.	0.4
CC(=O)NS(=O)(=O)c1ccc(NC(=O)/C=C/c2ccco2)cc1	-2.0	-7.4	-1.1	-2.7	0.0	16.5	-4.1	-0.5	6.5
Cc1cc(-c2ccc(C)c(S(=O)(=O)NCCCN3CCCCCC3)c2)on1	-10.0	-11.6	1.2	0.5	-0.4	-3.6	-0.3	1.1	-3.4
O=C(N/N=C/c1ccc(O)c2ncccc12)c1cccc(Br)c1	2.6	9.8	.	2.1	1.8	5.1	1.8	104.9*	-9.8
COc1ccc(C(=O)O/N=C/c2ccc(S(=O)(=O)c3ccc(Cl)cc3)nc2)cc1	.	8.3	.	4.0	-0.2	.	-3.4	0.6	9.2
CC(C)c1cc(C(C)C)c(S(=O)(=O)N2c3ccccc3[C@@]3(Br)C[C@H]4C(=O)N[C@@H](Cc5ccccc5)C(=O)N4[C@@H]23)c(C(C)C)c1	.	-17.1	0.3	.	.	.	.	.	.
CSc1ccc(S(=O)(=O)NCc2ccccc2Cl)cc1	-1.5	3.7	-16.8	-4.5	-0.5	-11.2	.	0.3	-0.2
CCOC(=O)c1cc(CC)sc1/N=C/c1c(O)[nH]c(=S)[nH]c1=O	10.4	-2.3	.	3.5	-0.3	-11.0	.	-1.2	6.3
CCC[C@@H]1C[C@@H](C(=O)NC(C(C)Cl)[C@H]2O[C@H](SC)[C@H](O)[C@@H](O)[C@H]2O)N(C)C1 (stereo not given in full)	-2.6	-0.2	-9.7	-1.2	-0.7	1.6	0.4	-0.2	-10.7
O=C(NN=Cc1ccc(OC(=O)c2ccccc2Br)cc1)c1ccccn1	.	.	-4.6	.	.	.	.	.	.
O=Cc1cccn1Cc1ccccc1[N+](=O)[O-]	-2.5	8.7	-8.9	-2.0	0.4	-0.1	-0.6	-0.5	3.3
Cc1oc(C(=O)Nc2ccc(O)cc2)cc1COc1ccccc1	-3.6	2.5	-18.5	-5.7	7.7	2.6	.	-0.9	-1.7
CC(=NOC(=O)c1ccccc1)c1oc(C)nc1C	.	.	2.3	.	.	.	.	.	.
O=C(NC1CCCC1)c1cc(Cl)ccc1[N+](=O)[O-]	-1.4	-0.5	12.7	-1.7	-0.3	-3.9	0.3	-0.5	-4.6
CCN(c1ccc(NC(=O)COC(=O)c2ccc(S(=O)(=O)N3CCCC3)cc2)cc1)C(C)C	-2.4	-0.2	-0.7	-4.6	-5.3	2.1	.	-0.7	-2.3
Cc1ccc(C(=S)N2CCCCCC2)cc1	0.6	-9.4	-13.6	-0.6	-0.5	7.9	0.6	0.3	1.1
CCN(C(=O)COc1cc(=O)n(CC)c2ccccc12)c1cc(Cl)ccc1OC	-2.9	6.7	-3.7	4.0	i	-7.8	0.8	-0.6	18.9
OCc1cnc(SCc2ccccc2)n1Cc1ccccc1	0.2	1.1	-0.9	1.5	i	-27.6	-1.4	1.9	3.4
Cc1ccc(CNC(=O)CNC(=O)c2c(C)nn(C)c2Cl)cc1	-1.8	6.6	-8.3	1.8	i	13.0	1.2	0.2	9.3
Cc1ccc(OCCNC(=O)/C=C/c2ccc([N+](=O)[O-])cc2)cc1C	-3.5	11.3	-18.5	-4.5	-3.4	10.6	.	-0.6	-7.4
COc1ccc(NC2CS(=O)(=O)CC2NCc2ccccc2)cc1 (stereo not given)	3.6	-8.0	-4.3	0.5	i	-8.8	.	0.1	0.5
CCOc1ccccc1C(=O)N(Cc1cccs1)C1CCS(=O)(=O)C1 (stereo not given)	-2.7	7.5	-16.0	1.1	i	0.3	.	-0.2	-2.8
O=S(=O)(c1cccc2nsnc12)N1CCN(c2ncccn2)CC1	-5.1	7.1	10.2	-5.1	i	13.2	.	1.9	5.1
O=C(COc1ccccc1)NNC(=O)COc1ccc([N+](=O)[O-])cc1	2.5	4.8	4.2	0.3	-0.3	13.1	0.4	0.6	-6.0

# Part of the list above in another layout:
COCCNC(=O)CSc1nc2scc(-c3ccccc3)c2c(=O)[nH]1
- SARS 3CLpro inh: -2.9
- Rv3671c protease: -8.9
- SSB-PriA inh: -6.0
- Anthrax LF inh2: .
- Vc quorum ag: -1.2
- VHR inh abs: 8.7
- TcdB inh: 0.2
- PfHsp40 yeast: -1.2
- Yp Topo-I inh: -8.0

COc1ccc(CN(Cc2cccn2C)S(=O)(=O)c2ccccc2)cc1
- SARS 3CLpro inh: 4.2
- Rv3671c protease: 7.4
- SSB-PriA inh: -4.3
- Anthrax LF inh2: 1.4
- Vc quorum ag: i
- VHR inh abs: 20.5
- TcdB inh: 1.7
- PfHsp40 yeast: 0.1
- Yp Topo-I inh: -5.1

COc1ccc(Nc2cc(C(=O)NC3CCCC3)c3ccccc3n2)c(OC)c1
- SARS 3CLpro inh: -2.8
- Rv3671c protease: -2.0
- SSB-PriA inh: 8.3
- Anthrax LF inh2: 0.3
- Vc quorum ag: -0.3
- VHR inh abs: 31.6
- TcdB inh: 0.1
- PfHsp40 yeast: 0.0
- Yp Topo-I inh: 11.9

CCC(C)n1c(C)nc2c(c1=O)c1nc3ccccc3nc1n2CCC1=CCCCC1 (stereo not given)
- SARS 3CLpro inh: -1.8
- Rv3671c protease: -1.7
- SSB-PriA inh: -12.9
- Anthrax LF inh2: ?
- Vc quorum ag: -0.4
- VHR inh abs: 13.2
- TcdB inh: .
- PfHsp40 yeast: -0.3
- Yp Topo-I inh: 5.9

# (more compounds)
smiles	SARS 3CLpro inh	Rv3671c protease	SSB-PriA inh	Anthrax LF inh2	Vc quorum ag	VHR inh abs	TcdB inh	PfHsp40 yeast	Yp Topo-I inh
CN1CC[C@]23c4c5ccc(O)c4OC2[C@H](O)C=CC3[C@H]1C5 (stereo not given in full)	.	1.8	-1.5	-1.0	0.2	.	-0.8	-0.5	8.5
COCCN(CCOC)C(=O)CCn1c(=O)oc2ccccc21	5.1	3.3	-12.0&-12.1	-1.3	-1.3	8.8	.	-1.4	2.2
COc1ccc(OC2C(=O)N(Cc3ccc4c(c3)OCO4)C2c2cccs2)cc1 (stereo not given)	-0.8	-1.7	-11.3	-1.0	0.9	20.2	0.0	10.2	40.1
COc1ccc(OC)c(S(=O)(=O)N2CCN(c3ccc(F)cc3)CC2)c1	5.1	.	11.3	-1.1	0.7	7.4	0.1	1.8	-8.1
CC1(C)CC2CC(C)(CN2C(=O)c2ccc([N+](=O)[O-])cc2[N+](=O)[O-])C1 (stereo not given)	-3.0	1.6	-13.5	-3.3	-1.5	10.6	2.9	0.5	4.1
Cc1onc(-c2ccccc2Cl)c1C(=O)NNC(=O)C1CCN(Cc2ccccc2)CC1	-7.9	8.2	-13.9	2.0	i	1.6	1.9	-1.2	-13.4
O=C(COc1ccc(Cl)cc1)Nc1ccccc1CO	0.2	2.3	-6.3	-1.8	-0.1	13.9	.	2.9	0.8
O=C(CCNC(=O)c1ccccc1Cl)NN=Cc1ccco1	.	5.8	-17.9	2.0	-1.6	.	3.5	-0.2	7.8
COCCCNC(=O)CC(NS(=O)(=O)c1ccc(C)cc1)c1ccc(OC)cc1 (stereo not given)	0.8	-1.0	-4.2	-0.4	-17.1	14.6	0.3	0.4	-1.1
CC1CC(=NO)C(C)CN1 (stereo not given)	.	.	0.3	.	.	.	.	.	.
COc1c(Cl)cnn(-c2ccc(C)cc2)c1=O	-10.4	3.3	-4.8	6.0	-6.7	25.3	-0.6	0.0	0.6
Cc1ccc(C)c(S(=O)(=O)N2CCN(C(=O)[C@@H](NC(=O)c3ccc(F)cc3)C(C)C)CC2)c1	.	1.0	1.7	-11.3	i	.	1.2	-0.4	30.2
COc1ccc(C(=O)N2CCN(c3ncccn3)CC2)cc1	-6.2	-6.6	-3.7	-5.4	-1.4	12.5	.	-2.1	8.4
CCOc1ccc(/C=N/NC(=O)Cc2cccs2)cc1	-2.1	0.0	i	3.0	-0.5	25.0	-0.6	.	12.3
COc1cc2cc(-c3ccc(O)cc3O)nc(C)c2cc1OC	-9.5	0.0	3.9	-1.4	-0.1	.	-0.2	1.5	-19.6
O=C(O)c1ccc(N=C2SCC(=O)N2Cc2ccccc2)cc1	3.8	3.9	6.7	-3.2	-0.5	7.8	-0.5	0.0	-5.3
Cc1cc(C=NNC(=O)COc2cccc3cccnc23)c(C)n1-c1ccccc1	.	.	-8.7	.	.	.	.	.	.
CCCC1=C(C(=O)OCC)C(c2ccc(OC)c(CSc3ccccn3)c2)C(C#N)=C(N)O1 (stereo not given)	1.0	4.0	-5.4	-0.5	-0.3	-1.6	.	-0.1	-9.1
COc1ccc(C(=O)N/C(=C\c2cccs2)c2nc3ccccc3[nH]2)cc1OC	1.6	2.7	1.0	-1.8	-0.3	24.6	.	1.2	-4.3
COc1ccc(CNc2ncnc3cc(Cl)ccc23)cc1	-4.1	-0.1	-9.9	2.9	.	26.4	-1.7	-1.1	5.0
Cc1ccc(SCc2nc(-c3cccnc3)no2)cc1	-0.9	-8.0	-42.1	-0.1	21.2*	-7.5	.	0.2	-9.2
N#CC1=C(N)Oc2c(oc(CO)cc2=O)C12C(=O)Nc1ccc(Cl)cc12 (stereo not given)	3.7	3.8	-7.5	3.3	i	17.3	.	0.2	1.6
Cc1ccc(CNC(=O)C(NS(=O)(=O)c2cccc3nsnc23)C(C)C)cc1 (stereo not given)	-0.4	6.2	-3.2	-1.8	i	-14.6	-0.8	-0.6	8.7
COc1cccc(C(=O)NNC(C)=CC(=O)C(F)(F)C(F)(F)C(F)(F)F)c1	.	.	0.2	.	.	.	.	.	.
O=C(/C=C/c1ccco1)Nc1nc(-c2ccccc2)cs1	1.8	-31.3	1.2	-1.8	-0.6	8.8	1.0	1.0	-0.7
CCOCCCn1c(=N)c(C(=O)NCc2ccc3c(c2)OCO3)cc2c(=O)n3cccc(C)c3nc21	-2.4	-7.7	-2.8	6.1	-9.7	15.2	2.7	-1.1	16.0
Cc1sc2ncnc(N3CCN(c4ncccn4)CC3)c2c1C	0.6	-12.0	-2.1	0.3	i	57.9*	.	5.3	17.2
COc1ccc(C2c3c(C)nn(-c4ccccc4)c3NC(=O)N2c2ccccc2)cc1 (stereo not given)	0.0	-3.5	-7.0	0.9	-0.2	12.1	0.3	0.8	20.5
CC(=O)Nc1cccc(C(=O)O)n1	1.0	-6.9	11.7	-0.6	-0.8	33.4	1.1	-0.3	6.1
CC(=O)Nc1cccc(NC(=O)CSc2nnc(Cc3cccn3C)n2-c2ccc(F)cc2)c1	-3.5	-1.7	6.0	-8.3	-0.2	-7.7	0.8	0.0	-6.2
